High-throughput results deposited in PubChem BioAssay by Fisher Drug Discovery Resource Center.
NPYLR7 ag – activates Aedes aegypti NPYLR7 receptor; HEK293T NPYLR7/Galpha15, GCaMP6s calcium fluorescence; 270,000 tested, 0.15% active; activation, % at 10 µM; in the data active = activation above about 40%;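 note: 0% = vehicle and 100% = reference agonist at the receptor; some compounds past the cut are filed as inactive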
NPYLR7 ag max-min – further read-out of NPYLR7 ag, marked with its call; activation, %; measured here: Max-Min RFU normalised activation; some inactives read as strong as hits;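 span of the calcium signal over five minutes; 0% = vehicle and 100% = native peptide agonist; compound fluorescence can raise it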
* marks the source's active call; other numbers are inactive results; & = joins results of further samples. Not all compounds are listed; count on the stated rates, not on these rows.

SMILES	NPYLR7 ag	NPYLR7 ag max-min
CCCC(CCC)C(=O)N1CCc2c([nH]c3ccc(OC)cc23)C1c1ccccc1OC (stereo not given)	19	4
CCn1cnc2c(nnn2C)c1=O	0	15
Cn1ccc(NC(=O)CCN2C(=O)COc3ccccc32)n1	3	-1
CC(NCC(O)COC(C)(C)C)c1ccccc1 (stereo not given)	-5	-9
Cn1cc([N+](=O)[O-])cc1C(=O)N1CCNCC1	4	5
CCOc1ccccc1NC(=O)CSc1ccc2nnc(-c3cccnc3)n2n1	-1	-3
CC(=O)c1ccc(C(=O)N2CCCC3(C=Cc4ccccc4O3)CC2)cc1 (stereo not given)	-4	-8
COCCS(=O)(=O)N(Cc1ccsc1)c1ccccc1	-1	-2
CC(NC(=O)CCn1nnnc1CN1CCOCC1)c1cnn(-c2ccccc2)c1 (stereo not given)	-4	-5
COc1cccc(CNC(=O)C2CCN(C(=O)[C@@H](C)NC(=O)Nc3cc(F)cc(C(F)(F)F)c3)CC2)c1	-2	4
CNC(=O)COc1ccc(-c2ccccc2)cc1Br	4	9
COC(=O)CCCC(=O)Nc1cccc(-c2cccc(-c3ccc4c(c3)OCCO4)n2)c1	-4	-6
CC(C)C(NCC(=O)NCc1ccccc1F)c1ccccn1 (stereo not given)	1	-1
COc1ccc(-c2nnc(SCC(=O)N(C3CC3)C3CCS(=O)(=O)C3)o2)cc1OC (stereo not given)	-7	-8
COc1ccc(-c2c[n+]3ccccc3n2Cc2ccccc2)cc1OC	-3	-3
O=C(O)C1COC2(CCN(C(=O)c3cccc([N+](=O)[O-])c3)CC2)N1C(=O)c1ccco1 (stereo not given)	12	18
COc1ccc(OCCN2CCN(c3ccc([N+](=O)[O-])cc3)CC2)cc1	1	2
Cc1cc2nc(-c3ccc(NC(=O)c4ccc(Cl)c([N+](=O)[O-])c4)cc3)oc2cc1C	8	6
Cc1ccc(N(CCC#N)C(=O)CCc2ccncc2)cc1	11	6
COc1ccc(-c2nc(OC)nn2-c2cccc(NC(=O)Nc3cccc(OC)c3)c2)cc1	17	16
CCS(=O)(=O)c1nc(S(=O)(=O)c2ccc(C)cc2)c(NCc2ccccc2OC)s1	-1	36
Cc1ccc2nc(NC(=O)CSc3nc4c(c(=O)n3C)SC(C)C4)sc2c1 (stereo not given)	-1	-2
CN(C)c1nc2c(c(NCCc3ccc(F)cc3)n1)CCNC2	2	-1
CCn1ccnc1CNC(=O)c1coc(COc2ccc(F)cc2Cl)n1	4	0
CS(=O)(=O)c1ccc(Cl)cc1	0	-2
CCOC(=O)c1c(C)nn(-c2ccc(C(=O)NC[C@@H]3CCCO3)cc2)c1C	4	2
O=C(c1c(F)ccc(S(=O)(=O)NC2CC2)c1F)N1CCCCC1	1	-2
CC(C)c1nc2sc3c(N4CCCC4)ncnc3c2c2c1COC(C)(C)C2	3	-1
Cc1nnc(N2CCC(c3ccc(O)cc3)CC2)c(C#N)c1C	4	4
O=C(NCCCl)NCc1nnnn1-c1ccc(F)c(F)c1	3	2

Laid out differently: results already given
Fields – NPYLR7 ag | NPYLR7 ag max-min
CN(C)c1nc2c(c(NCCc3ccc(F)cc3)n1)CCNC2
  2 | -1
CCn1ccnc1CNC(=O)c1coc(COc2ccc(F)cc2Cl)n1
  4 | 0

Further entries follow.
SMILES	NPYLR7 ag	NPYLR7 ag max-min
COc1ccc(S(=O)(=O)NCC2CCCO2)cc1N1CCN(C(=O)C(OC(C)=O)c2ccccc2)CC1 (stereo not given)	-8	-5
CC(=O)NC1CCC(NC(=O)[C@H]2CCCN2C(=O)c2cccc(Br)c2)CC1 (stereo not given in full)	25	25
O=S(=O)(NCCOc1ccc(-c2cccs2)nn1)c1ccc2c(c1)CCCC2	-4	-4
Cc1c(C(=O)N2CCCCC2)cnc2c(-c3c(F)cccc3Cl)cnn12	-5	-9
N#Cc1cc(C#N)c(SCc2c(Cl)ccc3cccnc23)nc1N	15	11
COC(=O)C1=C(C)N(CC2CCCO2)C(=O)/C1=C\c1cc(C)n(-c2ccccc2F)c1C (stereo not given)	0	-1
COCCN1C(=O)C2(SCCN2C(=O)c2ccc(Cl)cc2)c2ccccc21 (stereo not given)	-4	-1
COc1cccc(Cc2[nH]nc3ccnc(-c4ccc(S(C)(=O)=O)cc4)c23)c1	3	1
Cn1ccnc1-c1nccn1-c1ccc(-c2ccn[nH]2)cc1	7	4
CC(C)c1cccc(C(C)C)c1NC(=O)C(C)(C)C	-1	0
O=C(NCc1nc(-c2cccc(F)c2)c(-c2ccccn2)[nH]1)C1CC1	1	1
Cc1cccc(-c2ncc(CN[C@@H](CO)Cc3ccccc3)cn2)c1	-1	-3
CN(C)C(CNc1ncnc2c1c(Br)nn2C)C1CC1 (stereo not given)	-1	-1
Cc1nc2ccccc2nc1N1CCN(S(=O)(=O)c2c(F)c(F)c(F)c(F)c2F)CC1	5	-1
COc1cccc(Cc2nc3c(c(N4CCOCC4)n2)CN(C(=O)c2ccc(Cl)c(Cl)c2)CC3)c1	14	12

Laid out differently: results already given.
SMILES | NPYLR7 ag | NPYLR7 ag max-min
CC(C)c1cccc(C(C)C)c1NC(=O)C(C)(C)C | -1 | 0
O=C(NCc1nc(-c2cccc(F)c2)c(-c2ccccn2)[nH]1)C1CC1 | 1 | 1
Cc1cccc(-c2ncc(CN[C@@H](CO)Cc3ccccc3)cn2)c1 | -1 | -3
CN(C)C(CNc1ncnc2c1c(Br)nn2C)C1CC1 (stereo not given) | -1 | -1
Cc1nc2ccccc2nc1N1CCN(S(=O)(=O)c2c(F)c(F)c(F)c(F)c2F)CC1 | 5 | -1
COc1cccc(Cc2nc3c(c(N4CCOCC4)n2)CN(C(=O)c2ccc(Cl)c(Cl)c2)CC3)c1 | 14 | 12

Next part.
SMILES	NPYLR7 ag	NPYLR7 ag max-min
COCCC1CCCCN1C(=O)Cc1c[nH]c2ccccc12 (stereo not given)	1	2
Cc1ccc(F)cc1C(=O)NNC(=O)c1csc(N2CCOCC2)n1	24	18
CCn1c(C)c(C(C)(C)C)sc1=NS(=O)(=O)c1ccc(Cl)cc1	19&0	12&-1
COc1ccccc1N1CCN(C(=O)CCn2cncn2)CC1	0	-3
CC(=O)N(c1ccccc1)c1nc(C)cc(C)c1C#N	-2	-6
Cc1ccsc1[C@@H]1CCN(Cc2cncn2Cc2ccccc2)C[C@H]1O	18&5	9&10
CC1C(=O)N(c2cccc(F)c2)CCN1C(=O)C1CCCC1 (stereo not given)	-3	-3
CCn1nnc2c(=O)n(CC(=O)N(C(C)C)C(C)C)cnc21	4	13
CCCCn1c(-c2cc3c(s2)CCC3)nc2cc(S(N)(=O)=O)ccc21	9	4
COc1cccc(C(CN2CCN(C(=O)CCc3ccccc3)CC2)OCc2ccc(C)cc2)c1 (stereo not given)	4	0
COCCN(CC(=O)N1CCc2sccc2C1c1ccc(F)cc1)C(=O)/C=C/c1ccccc1 (stereo not given)	-12	-1
COc1cccc(C(=O)N2C(C(=O)O)COC23CCN(C(=O)C2CC2)CC3)c1 (stereo not given)	10	16
Nc1cc(=O)oc2cc(O)ccc12	9	6
O=C(NCCNc1nc(Cc2ccccc2)nc2cc(Cl)ccc12)c1ccc(C(F)(F)F)cc1	20	21
Cc1ccccc1C1c2ccsc2CCN1C(=O)CN(CC1CCCO1)S(=O)(=O)c1ccc(Br)cc1 (stereo not given)	-11	-16
Cc1nc2c(C(=O)N3CCN4CCNC(=O)C4C3)cccc2[nH]1 (stereo not given)	3	2
CNC(=O)Cn1c(CO)cnc1SCc1ccccc1Cl	20	15
O=C1CCC(=O)N1OCC(=O)N(c1ccccc1)c1ccccc1	-3	-8
NC(=O)CS(=O)(=O)Cc1c(Cl)cccc1Cl	7	5
O=C(NC1CCCc2ccccc21)C(C1CCCC1)N1CCN(C(=O)c2ccco2)CC1 (stereo not given)	-3	0
C#CCN(Cc1ccc(C)cc1)S(=O)(=O)c1ccccc1S(C)(=O)=O	7	2
CCOC(=O)C(=O)NCC1CCCN1S(=O)(=O)c1ccc(OC)cc1 (stereo not given)	11	4
CCCC(=O)Nc1cc(C)nn1-c1nc(-c2ccccc2)cs1	-5	-12
CCC(C)N(Cc1cccc(OS(=O)(=O)CC)c1)C(=O)Nc1ccccc1Br (stereo not given)	0	-1
CCCc1ccc(-c2ccc(C(=O)Nc3nnc(SCC)s3)cc2)nc1	-1	-3
CC(C)(C)NC(=O)N(Cc1ccccc1OS(=O)(=O)c1ccc(F)cc1)CC1CCCO1 (stereo not given)	3	7
C#CCN=Cc1c(O)n(CC)c(=S)n(CC)c1=O	-6	-11
Nc1c(C(=O)C2CC2)oc2ccc(Br)cc12	0	-1
Clc1cccc(OCOCOc2cccc(Cl)c2)c1	-2	-3
CSc1nc2sc3c(c2c(=O)n1C)CC(C)(C)OC3	2	0

Random excerpt: 3 entries already listed.
SMILES	NPYLR7 ag	NPYLR7 ag max-min
C#CCN(Cc1ccc(C)cc1)S(=O)(=O)c1ccccc1S(C)(=O)=O	7	2
O=C1CCC(=O)N1OCC(=O)N(c1ccccc1)c1ccccc1	-3	-8
CNC(=O)Cn1c(CO)cnc1SCc1ccccc1Cl	20	15

Other structures.
SMILES	NPYLR7 ag	NPYLR7 ag max-min
COc1ccccc1-c1[nH]nc2nccc(-c3ccsc3)c12	-1	-2
COc1ccc(CN2CCC(CO)(Cc3ccccc3)CC2)cc1Cn1cccn1	12	14
Cc1cc(C)c(NC(=O)COc2cc(C)nc(N3CCC(C)CC3)n2)c(C)c1	-3	-4
CC(C)CN(CC(O)c1ccc(F)cc1)c1cc(-n2ccnc2)ncn1 (stereo not given)	-2	-2
COc1ccc(S(=O)(=O)c2cc3ccc(O)cc3oc2=O)cc1OC	12	8
CC1(C(=O)NS(=O)(=O)c2cccs2)CCN1C(=O)Cc1ccc(-c2ccccc2)cc1 (stereo not given)	-2	-5
CN(CCN1CCOCC1)Cc1nc(-c2ccc3c(c2)OCO3)no1	16	2
CC(Cn1cccn1)Nc1ccc(-c2nc(Cc3ccc(F)cc3)no2)cn1 (stereo not given)	7	1
CCOC(=O)c1cc(C#N)c(SCC(=O)N2CCOCC2)nc1C	4	-2
CCN1C(=O)NC2NC(=O)N(CC)C21 (stereo not given)	3	2
Cc1ccc(-n2nc(C(=O)NCc3cccnc3)c(=O)n(Cc3ccccc3F)c2=O)cc1C	1	2
O=S(=O)(Nc1cc(Sc2ncn[nH]2)c(O)c2ccccc12)c1ccc(Br)cc1	-5	-7
CSc1nn(CC(=O)NCc2ccc3c(c2)OCO3)c(N)c1-c1nc(-c2ccccc2)no1	6	-5
Nc1nc(N2CCOCC2)nc2c1C(C(=O)Nc1ccccc1)CC(=O)N2 (stereo not given)	-10	-21
CCOc1ccc(CC(=O)N2CCC(n3c(-c4ccccc4)nc4ccc(F)cc43)CC2)cc1	15	2
CCOC(=O)C1CCCN(C(=O)c2cc(Cn3nc(C)cc3C)[nH]n2)C1 (stereo not given)	22	12
CC(C)n1cc(Br)cc1C(=O)N(C)S(=O)(=O)C(C)C	-3	28
